Bioassay records: PubChem, Broad Institute
DUX4 txn inh – inhibitors of DUX4-driven ZSCAN4 reporter expression, primary screen, 293T cells, Gaussia and Italica luciferase | 293T-iDUX4 ZSCAN4-Gaussia luciferase reporter, 24 h; active compounds read low | activity change, negative = inhibition, % (concentration not given with the values) | 37,000 compounds, 0.8% hits | AID 1224904, 2016;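 active = -10% or lower and over 25 points stronger than a control reporter; inconclusive = -10% or lower with a smaller gap; inactive = above -10%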;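 note: 0% = median of neutral control wells and -100% = median of positive control wells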
DUX4 txn inh difference – also measured in DUX4 txn inh; calls as there; Gaussia minus Italica difference, %; measured here: selective DUX4 reporter inhibition;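 worked out from the two reporters; negative = selective loss of the DUX4 reporter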
DUX4 txn inh control – further read-out of DUX4 txn inh, marked with its call; activity change, negative = inhibition, %; measured here: Italica tet-on control reporter;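 0 = neutral control and -100 = positive control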
* hit, by the source's call; ? = inconclusive; · = not tested or not shown; & = joins results of further samples. A portion of the library, so the mix of outcomes need not match the whole.

DUX4 txn inh,DUX4 txn inh difference,DUX4 txn inh control,SMILES
5,-4,9.4,OC[C@@H]1[C@H](c2ccc(C#CC3(O)CCCC3)cc2)[C@H]2CN(Cc3cncnc3)CCCCN12
?,·,·,COc1ccccc1CNC(=O)C[C@H]1CC[C@H]2[C@@H](COC[C@@H](O)CN2Cc2cccc(-c3ccncc3)c2)O1
-2,0,-1.5,CCNC(=O)[C@@H]1[C@@H](CO)[C@@H]2Cn3c(cccc3=O)[C@H]1N2Cc1cccc(Cl)c1
-3,-1,-1.8,CNC[C@@H]1Oc2cc(C#CC(C)(C)O)ccc2S(=O)(=O)N([C@@H](C)CO)C[C@@H]1C
?,·,·,Cc1cccc(S(=O)(=O)N(C)C[C@@H]2OCc3ccccc3-c3ccccc3C(=O)N([C@@H](C)CO)C[C@@H]2C)c1
-2,-4,2.6,COCC(=O)NC[C@H]1[C@@H](c2ccc(C3=CCCC3)cc2)[C@@H](CO)N1C(C)=O
0,3,-3.6,CCCC(=O)Nc1ccc2c(c1)OC[C@H](C)N(Cc1cncnc1)C[C@H](C)[C@@H](OC)CN(C)C2=O
?,·,·,Cc1ccc(S(=O)(=O)Nc2ccc3c(c2)C(=O)N([C@H](C)CO)C[C@@H](C)[C@@H](CN(C)C(=O)NC2CCCCC2)OCCCC[C@H](C)O3)cc1

Profiles, quoted from the list. Order of values: DUX4 txn inh | DUX4 txn inh difference | DUX4 txn inh control
Shown for OC[C@@H]1[C@H](c2ccc(C#CC3(O)CCCC3)cc2)[C@H]2CN(Cc3cncnc3)CCCCN12 : 5 | -4 | 9.4
Shown for CCNC(=O)[C@@H]1[C@@H](CO)[C@@H]2Cn3c(cccc3=O)[C@H]1N2Cc1cccc(Cl)c1 : -2 | 0 | -1.5

(further entries)
DUX4 txn inh,DUX4 txn inh difference,DUX4 txn inh control,SMILES
2,1,0.9,CN(C)CCCNC(=O)C[C@H]1CC[C@@H]2[C@H](COc3ccc(NC(=O)c4cccc(F)c4)cc3C(=O)N2C)O1
-4,-2,-1.5,CO[C@H]1CC[C@H]2CCOc3ccc(C#N)cc3C(=O)N(C)C[C@@H](OC)[C@H](C)C(=O)N(C)C[C@@H]1O2
1,4,-3.1,COc1ccc(CN(C)C[C@H]2OCCCC[C@@H](C)Oc3ccc(NC(=O)C4CCCCC4)cc3C(=O)N([C@@H](C)CO)C[C@@H]2C)cc1
0,4,-4.5,C[C@@H]1CN([C@H](C)CO)C(=O)Cc2cc(NC(=O)NC3CCCCC3)ccc2O[C@H]1CN(C)C(=O)Nc1ccc(C(F)(F)F)cc1
-4,2,-6.1,CCCNC(=O)[C@@H]1[C@@H](CO)[C@@H]2Cn3c(cccc3=O)[C@H]1N2S(=O)(=O)c1ccccc1C
3,4,-1.3,O=C(NC[C@@H]1N[C@@H](CO)[C@@H]1c1ccccc1)c1ccccc1F
19&6,11&-7,7.4&13,O=C(C1CCOCC1)N1C[C@@H]2N[C@H](C1)C2c1ccc(-c2cncnc2)cc1 (stereo partly specified)
?,·,·,C[C@H]1CN([C@@H](C)CO)C(=O)c2ccccc2-c2ccccc2CO[C@H]1CN(C)S(=O)(=O)c1ccsc1
-4,0,-4.6,O=C(C[C@@H]1CC[C@H]2[C@@H](COC[C@@H](O)CN2S(=O)(=O)c2ccccc2F)O1)NCc1ccccc1F
3,4,-1.1,CO[C@@H]1CN(C)C(=O)c2cc(NC(C)=O)ccc2OC[C@H](C)NC[C@H]1C
14,0,14,COc1ccccc1S(=O)(=O)N(C)C[C@H]1OCc2ccccc2-c2ccccc2C(=O)N([C@@H](C)CO)C[C@H]1C
-5,-7,2.3,COCC(=O)NC[C@@H]1[C@@H](c2ccccc2)[C@H](CO)N1C(=O)c1ccccc1
-2,-2,0.2,CCCC(=O)Nc1ccc2c(c1)OC[C@@H](C)N(C(=O)CN(C)C)C[C@@H](C)[C@@H](OC)CN(C)C2=O
5,-4,9.6,C/C=C/c1ccc([C@H]2[C@@H](CO)N3CCCCN(C(=O)c4ccc(F)cc4)C[C@@H]23)cc1
14,10,4.4,O=C(C[C@@H]1CC[C@H]2[C@@H](COC[C@@H](O)CN2C(=O)c2ccncc2)O1)NCc1ccc(-c2ccccc2)cc1
1,1,0.1,O=C(Nc1ccccc1F)N1C[C@@H]2[C@H](c3ccccc31)[C@H](CO)N2C(=O)c1ccccn1
11,3,8.2,CN(C)CC(=O)N1[C@H](CO)[C@H](c2ccccc2-c2ccccc2F)[C@@H]1C#N
-1,-2,1.4,CCCNC(=O)N1[C@H](C#N)[C@@H](c2ccc(/C=C/c3ccccc3)cc2)[C@H]1CO
-3,-2,-0.8,O=C(Nc1ccccc1Cl)N1C[C@H]2[C@@H](c3ccccc31)[C@@H](CO)N2C(=O)c1cccnc1
-44*,-27*,-17*,COc1cccc(CN2[C@@H](CO)[C@H](c3ccccc3)C23CN(Cc2ccccc2OC)C3)c1
16,18,-1.6,Cn1cnc(S(=O)(=O)N2CC[C@@H]3[C@@H](CO)Nc4ccc(-c5ccccc5F)cc4[C@@H]32)c1
3,-1,4.1,Cc1cccc(-c2ccc([C@H]3[C@H]4CN(C(=O)NC5CCCCC5)CC(=O)N4[C@H]3CO)cc2)c1
6,-2,7.7,CN(C)CC#Cc1ccc([C@@H]2[C@@H](CO)N3C(=O)CN(C(=O)c4cccnc4)C[C@H]23)cc1
-7,3,-10,N#C[C@@H]1[C@@H](c2ccccc2C2=CCCC2)[C@H](CO)N1C(=O)Cc1ccncc1
-1,-12,11,COc1ccccc1S(=O)(=O)N[C@H]1CC[C@@H](CCn2cc(C3CCCCC3)nn2)O[C@H]1CO
12,6,5.9,O=C1CN(S(=O)(=O)c2cccc(F)c2)C[C@H]2[C@H](c3ccc(C4=CCCC4)cc3)[C@@H](CO)N12
4,2,2.5,COc1ccc(-c2ccc([C@H]3[C@H](CO)N4C(=O)CN(C(=O)c5ccccn5)C[C@@H]34)cc2)cc1
-6,-5,-1.7,Cc1ccc(S(=O)(=O)Nc2ccc3c(c2)CC(=O)N([C@@H](C)CO)C[C@H](C)[C@@H](CN(C)C(=O)Nc2ccc4c(c2)OCO4)O3)cc1
1,3,-2.5,Cc1noc(C)c1S(=O)(=O)N(C)C[C@@H]1OCCCC[C@@H](C)Oc2ccc(NC(=O)Nc3cccc4ccccc34)cc2C(=O)N([C@H](C)CO)C[C@H]1C
2,-1,3.0,COCCNC(=O)C[C@H]1CC[C@H]2[C@@H](COC[C@@H](O)CN2C(=O)Nc2ccccc2OC)O1
-1,-3,1.3,Cc1cc(C(=O)Nc2ccc3c(c2)C(=O)N(C)[C@@H]2CC[C@@H](CC(=O)N[C@H](C)c4ccccc4)O[C@H]2CO3)no1
2,6,-3.7,COc1ccc(NC(=O)Nc2ccc3c(c2)[C@@H]2C[C@@H](CC(=O)NCC(F)(F)F)O[C@@H](CO)[C@@H]2O3)cc1
2,1,1.0,Cc1noc(C)c1NC(=O)N[C@H]1CC[C@H](CC(=O)NCc2ccc(Cl)c(Cl)c2)O[C@@H]1CO
-2,-3,1.5,C/C=C/c1ccc([C@@H]2[C@@H](CO)N(C(=O)CN(C)C)C23CN(C(=O)C2CCC2)C3)cc1
3,-9,11,C[C@@H]1CN([C@H](C)CO)C(=O)c2ccccc2-c2ccccc2CO[C@@H]1CN(C)Cc1cccc2c1OCCCO2
-2,-2,0.2,O=C(NCc1ccccn1)[C@@H]1[C@@H](CO)[C@@H]2Cn3c(cccc3=O)[C@@H]2N1CCc1ccccc1
9,4,5.4,CN(C)C(=O)c1cccc(-c2ccc([C@@H]3[C@H](CO)N4C(=O)CN(C(=O)C5CCC5)C[C@@H]34)cc2)c1
-2,3,-5.1,COc1ccccc1CN1[C@H](CO)[C@H]2c3ccccc3N(C(=O)c3ccncc3)C[C@H]21
3,-1,3.9,O=C(Nc1ccccc1F)N1C[C@H]2[C@@H](c3ccccc31)[C@H](CO)N2C(=O)C1CCCCC1
1,-1,2.3,Cc1ccc(S(=O)(=O)Nc2ccc3c(c2)C(=O)N([C@@H](C)CO)C[C@H](C)[C@@H](CN(C)S(C)(=O)=O)O3)cc1
5,2,2.9,CCCN1[C@H](C(=O)N2CCOCC2)[C@@H](CO)[C@@H]2Cn3c(ccc(-c4ccncc4)c3=O)[C@@H]21
5,3,2.3,COc1ccc2c3c(n(C)c2c1)[C@H](CO)N(C)CC31CN(C(=O)NC(C)C)C1
8&0,1&-10,7.1&9.9,C/C=C/c1ccc(C2[C@@H]3CN(C(=O)Cc4ccccc4)C[C@H]2N3)cc1 (stereo partly specified)
1,-1,1.7,CO[C@@H]1CC[C@H]2CCN(C)C(=O)CCCN(C)C(=O)c3cccc(C#N)c3OC[C@@H]1O2
-3,2,-5.1,CCCNC(=O)C[C@@H]1CC[C@@H]2[C@H](COC[C@H](O)CN2C(=O)c2cccnc2)O1
0,-2,2.1,C[C@@H]1CN([C@H](C)CO)C(=O)c2cc(NC(=O)Nc3ccc(C(F)(F)F)cc3)ccc2O[C@@H](C)CCCCO[C@@H]1CN(C)CC1CCCCC1
-3,-1,-2.2,C[C@@H]1CCCCO[C@H](CN(C)C(=O)CCCN(C)C)[C@@H](C)CN([C@H](C)CO)C(=O)c2cc(NC(=O)CCC(F)(F)F)ccc2O1
1,-11,11,O=C(c1ccncc1)N1CC(=O)N2[C@H](CO)[C@@H](c3ccc(C#CCC4CCCC4)cc3)[C@H]2C1

Brought forward from above: 7 entries, then new ones.
DUX4 txn inh,DUX4 txn inh difference,DUX4 txn inh control,SMILES
5,3,2.3,COc1ccc2c3c(n(C)c2c1)[C@H](CO)N(C)CC31CN(C(=O)NC(C)C)C1
8&0,1&-10,7.1&9.9,C/C=C/c1ccc(C2[C@@H]3CN(C(=O)Cc4ccccc4)C[C@H]2N3)cc1 (stereo partly specified)
1,-1,1.7,CO[C@@H]1CC[C@H]2CCN(C)C(=O)CCCN(C)C(=O)c3cccc(C#N)c3OC[C@@H]1O2
-3,2,-5.1,CCCNC(=O)C[C@@H]1CC[C@@H]2[C@H](COC[C@H](O)CN2C(=O)c2cccnc2)O1
0,-2,2.1,C[C@@H]1CN([C@H](C)CO)C(=O)c2cc(NC(=O)Nc3ccc(C(F)(F)F)cc3)ccc2O[C@@H](C)CCCCO[C@@H]1CN(C)CC1CCCCC1
-3,-1,-2.2,C[C@@H]1CCCCO[C@H](CN(C)C(=O)CCCN(C)C)[C@@H](C)CN([C@H](C)CO)C(=O)c2cc(NC(=O)CCC(F)(F)F)ccc2O1
1,-11,11,O=C(c1ccncc1)N1CC(=O)N2[C@H](CO)[C@@H](c3ccc(C#CCC4CCCC4)cc3)[C@H]2C1
5,8,-3.2,COc1cccc(C(=O)Nc2ccc3c(c2)C(=O)N(C)[C@@H]2CC[C@@H](CC(=O)NCc4ccccc4F)O[C@@H]2CO3)c1
?,·,·,N#C[C@H]1[C@@H](c2ccccc2C2=CCCCC2)[C@H](CO)N1S(=O)(=O)c1ccccc1
3,2,0.6,CCN(C[C@H]1N[C@@H](CO)[C@H]1c1ccccc1)C(=O)c1ccccc1
0,1,-0.2,C[C@@H]1CN([C@H](C)CO)C(=O)c2cc(NC(=O)NC3CCCCC3)ccc2O[C@@H](C)CCCCO[C@H]1CN(C)S(C)(=O)=O
-8,1,-9.7,COc1ccccc1C#Cc1ccc2c(c1)[C@H]1[C@H](CCN1S(=O)(=O)c1ccc(C)cc1)[C@@H](CO)N2
10,9,1.8,COc1cccc(NC(=O)N2C[C@H](O)COC[C@@H]3O[C@H](CC(=O)NC4CCCC4)CC[C@H]32)c1
?,·,·,C[C@@H]1CN([C@H](C)CO)C(=O)c2c(c3ccccc3n2C)-c2ccccc2CO[C@@H]1CN(C)C(=O)Nc1cccc(Cl)c1Cl
1,1,0.1,CO[C@@H]1CN(C)C(=O)c2cc(NS(=O)(=O)c3cccc(Cl)c3)ccc2OC[C@@H](C)NC[C@H]1C
-5,-3,-1.8,C[C@@H]1CN([C@H](C)CO)S(=O)(=O)c2ccc(-c3cccc(C#N)c3)cc2O[C@@H]1CN(C)C(=O)c1ccccc1
-5,-11,5.9,CO[C@H]1CN(C)C(=O)c2cc(NC(=O)NC(C)C)ccc2OC[C@@H](C)N(CCC(F)(F)F)C[C@@H]1C
-6,-1,-4.9,O=C(Nc1ccc(Cl)c(Cl)c1)N[C@H]1CC[C@H](CCNC(=O)c2ccc(F)cc2)O[C@@H]1CO
18,10,8.3,COCC(=O)N1[C@@H](C#N)[C@@H](c2ccccc2-c2cccc(OC)c2)[C@@H]1CO
3,0,2.3,CN(C)CC#Cc1ccc([C@H]2[C@@H](CO)N(C(=O)C3CC3)[C@H]2C#N)cc1
0,3,-2.8,CCCNC(=O)[C@H]1[C@H](CO)[C@H]2Cn3c(ccc(C4=CCCC4)c3=O)[C@@H]1N2
?,·,·,C[C@@H]1CN([C@@H](C)CO)C(=O)c2ccccc2-c2ccccc2CO[C@@H]1CN(C)S(=O)(=O)c1ccc(Cl)cc1
-9,-16,6.9,COCC(=O)N1CC[C@@H]2[C@@H](CO)Nc3ccc(-c4cccc(C(=O)N(C)C)c4)cc3[C@@H]21
2,-6,8.5,COc1ccc2c3c([nH]c2c1)[C@H](CO)NCC31CN(Cc2cc(F)ccc2F)C1
0,3,-2.9,CCC(=O)N1CC2(C1)[C@H](c1ccccc1)[C@H](CO)N2C(=O)c1ccccc1
19,8,10,CCCNC(=O)N1CC2(CN(S(C)(=O)=O)C2)c2c(n(C)c3cc(OC)ccc23)[C@H]1CO
1,4,-2.7,COC(=O)C[C@@H]1CC[C@@H]2[C@H](COc3ccc(NC(=O)NC(C)C)cc3C(=O)N2C)O1
-2,-21,19,O=S(=O)(c1ccc(F)cc1)N1CCCCN2[C@H](C1)[C@@H](c1ccc(C#CC3CC3)cc1)[C@@H]2CO
-4,-4,0.2,CCCNC(=O)N[C@@H]1C=C[C@@H](CC(=O)NCCc2ccccc2)O[C@@H]1CO
